RE007 growth inh – qHTS Assay for Inhibitors of the HIV-1 protein Vpr | Potency, µM (doses to about 92.2 µM), inactives show at the highest dose activity change, negative = less growth | S. pombe RE007 Vpr strain, BacTiter-Glo ATP luminescence, 24 h; control for the full effect not named in the record | 360,000 compounds, 0.21% hits; active = well fitted falling curve with a large enough effect; inconclusive = small, poorly fitted or top-dose-only effect; inactive = no such curve, though single readings can be large or run the other way;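 note: nearly all actives have a fitted effect of over 50% in size; the assay follows cell death caused by Vpr and the record does not say whether a fall means rescue or toxicity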
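Fission yeast strain RE007, carrying one chromosomally integrated HIV-1 vpr copy, was seeded at OD 0.01 in PMG+AL medium with 23 nL pinned compound. After 24 h at 30 °C and 99% humidity, viability was read by BacTiter-Glo luminescence.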
2A StopGo – High Throughput Screening for Foot and Mouth Disease Virus Antivirals; human cells with a luciferase reporter of 2A StopGo recoding; control for the full effect not named in the record; 410,000 compounds, 1.2% hits; Potency, µM (top dose mostly 57.9 µM), for the others: at the top dose signal change, negative = less light; AID 1159524, 2015; active = well fitted falling curve with a large enough effect; inconclusive = small, poorly fitted or top-dose-only effect; inactive = no such curve, though single readings can be large or run the other way; tested in HEK293T cells; note: nearly all actives have a fitted effect of over 45% in size; luciferase light after 4 h
An asterisk follows results filed as active; ? = inconclusive; [ ] = remark or other dose. % is set by controls: 0 for no effect and ±100 for the full control effect; potency is the fitted concentration of half-maximal effect.

SMILES | RE007 growth inh | 2A StopGo
Cc1ccc([C@@H]2CC(=O)[C@@H]3CN(S(=O)(=O)c4ccc(C)cc4)[C@H](c4ccccc4)C[C@@H]3N2S(=O)(=O)c2ccc(Cl)cc2)cc1 | -7% | -4%
Cc1ccccc1-n1nc2c(c1NC(=O)C1CC1)CS(=O)(=O)C2 | 14% | -28%
CCOC(=O)C1=CCN(S(=O)(=O)c2ccccc2Br)C1c1cccc(Cl)c1 (stereo not drawn) | 3% | -25%
CSC1=NC=C(C#N)C2=NC(c3ccc(Cl)cc3)NN12 (stereo not drawn) | -21%[18.4 µM] | 1%
Clc1ccc(N2O[C@H]3C=C[C@@H]2C3)nc1 | 6% | 29%
COc1cccc(C2=CC(=O)CC(c3ccco3)C2)c1 (stereo not drawn) | 1% | 19%
CCc1nc2c(OCc3ccc(F)cc3)cccn2c1N(C)C(=O)CC(C)C | 4%[18.4 µM] | -19%
O[C@@H]1CN(Cc2cccs2)[C@@H](c2ccc(Cl)cc2)C[C@H]1n1cc(C2CC2)nn1 | 0% | -19%
CN(CC(=O)N/N=C/c1ccc(F)cc1)S(=O)(=O)c1ccccc1 | 9% | 8%
CC(=NNC(N)=O)C1CC2CCC1CC2 (stereo not drawn) | 22% | -14%

Random excerpt: 6 records from the list.
SMILES | RE007 growth inh | 2A StopGo
O[C@@H]1CN(Cc2cccs2)[C@@H](c2ccc(Cl)cc2)C[C@H]1n1cc(C2CC2)nn1 | 0% | -19%
CN(CC(=O)N/N=C/c1ccc(F)cc1)S(=O)(=O)c1ccccc1 | 9% | 8%
COc1cccc(C2=CC(=O)CC(c3ccco3)C2)c1 (stereo not drawn) | 1% | 19%
CCc1nc2c(OCc3ccc(F)cc3)cccn2c1N(C)C(=O)CC(C)C | 4%[18.4 µM] | -19%
Cc1ccccc1-n1nc2c(c1NC(=O)C1CC1)CS(=O)(=O)C2 | 14% | -28%
CSC1=NC=C(C#N)C2=NC(c3ccc(Cl)cc3)NN12 (stereo not drawn) | -21%[18.4 µM] | 1%

Additional results follow:
SMILES | RE007 growth inh | 2A StopGo
COc1ccc(-n2c(SCC(=O)Nc3cc(C)on3)nc3c(c2=O)SC(C)C3)cc1 (stereo not drawn) | -28% | -10%
O=C1c2ccccc2C(c2nnnn2-c2ccc3c(c2)OCCO3)N1Cc1ccc(F)cc1 (stereo not drawn) | 9% | 0%
C[C@H](CO)N1C[C@H](C)[C@H](CN(C)C(=O)Nc2cccc(Oc3ccccn3)c2)OCc2cnnn2CCCC1=O | 13% | 0%
Cc1cn([C@H]2C[C@H](O)[C@@H](/C=C/C(=O)NCCCc3ccccc3)O2)c(=O)[nH]c1=O | 11% | 0%
Cc1c(C(=O)NCc2cccc([N+](=O)[O-])c2)sc(=O)n1Cc1ccc(C(C)C)cc1 | 5%[18.4 µM] | -24%
C[C@@H]1CN([C@H](C)CO)C(=O)CCCn2cc(nn2)CO[C@H]1CN(C)C(=O)Nc1ccc(C(C)(C)C)cc1 | 8% | 0%
CN(C(=O)c1cccc(NC(=O)Cc2ccc(NC(=O)C3CCN(C(=O)C4CCCC4)CC3)cc2)c1)C1CC1 | 4% | -5%
CCOC1=C2[C@@H](CN(S(=O)(=O)c3ccc(C)cc3)[C@H]2c2cccc3ccccc23)[C@H]2C(=O)N(Cc3ccccc3)C(=O)[C@H]2C1 | 7% | 35%[activator]
Cc1ccc(S(=O)(=O)NNc2c3ccccc3nc3ccc(Cl)cc23)cc1 | -3% | 22%
N=c1c(S(=O)(=O)c2ccc(Br)cc2)cc2c(=O)n3ccccc3nc2n1CCN1CCOCC1 | 14% | -8%
COc1cccc(OCc2ccc(Cn3nc(NC(=O)NCCc4ccc(OC)c(OC)c4)c4ccccc43)cc2)c1 | 32% | -3%
Cc1ccc(S(=O)(=O)N2C[C@H]3C(=O)C[C@@H](c4ccccc4)N(S(=O)(=O)c4ccc(Br)cc4)[C@H]3C[C@H]2c2ccccc2)cc1 | 12% | -14%
NS(=O)(=O)c1ccc(CCNc2nn3c(-c4cccc(OC(F)(F)F)c4)cnc3s2)cc1 | 19% | 22µM*
CC(=O)Nc1cccc(-c2ccnc3c2CC(C(=O)NCCC(F)(F)F)O3)c1 (stereo not drawn) | 2% | -2%
CCCNC(=O)c1cc(C2CCCN(C(=O)c3cc(C(C)(C)C)nn3C)C2)on1 (stereo not drawn) | -1% | -18%
Cc1cn([C@H]2C[C@H](O)[C@@H](CNCc3ccc(Oc4cc(-n5cccn5)ncn4)cc3)O2)c(=O)[nH]c1=O | 8% | 0%
C[C@H](CO)N1C[C@H](C)[C@H](CN(C)S(=O)(=O)c2ccc3ccccc3c2)OCc2cnnn2CCCC1=O | 14% | -4%
O=C(NCc1ccccc1Cl)c1[nH]c(C(F)(F)F)nc1-c1ccccc1 | 14% | -22%
C[C@H]1CN([C@@H](C)CO)C(=O)CCCn2nncc2CO[C@H]1CN(C)C(=O)Nc1ccnc(N2CCOCC2)c1 | 7% | -13%
O=C(O)C1CC(Br)C(Br)CC1C(=O)O (stereo not drawn) | -5% | -8%
O=C1C=C(c2ccccc2)CC(c2ccc(F)cc2)C1 (stereo not drawn) | -13% | -6%
CCCS(=O)(=O)NC(=O)C1(C)CCN(C(=O)c2cc(F)ccc2C)C1 (stereo not drawn) | 1% | -18%
CC(/C=N/NC(=O)c1ccccc1C)=C\c1ccccc1 | -6% | 51%[activator]
Cc1cccc(C)c1NC(=O)C(c1ccccc1F)n1c(=O)c(-c2cc3ccccc3[nH]2)nc2ccccc21 (stereo not drawn) | 4% | -6%
C#CCOCCOCCOCCNc1nc(N2CCN(C(=O)[C@H](C)n3cc(CCC(=O)O)nn3)CC2)nc(N2CCN(C(=O)[C@H](Cc3ccc(O)cc3)n3cc(CCO)nn3)CC2)n1 | -1% | -15%
Oc1ccc(C[C@H]2CNC(=S)N2CC2CCCN2C[C@H](Cc2ccccc2)N2C[C@H](Cc3ccc(O)cc3)N(CCc3ccccc3)C2=S)cc1 (stereo partly drawn) | -7% | 0%
CC1(Cc2ccccc2OC(F)(F)F)C(=O)Nc2ccc(-c3ccsc3)cc21 (stereo not drawn) | 14% | 0%
COc1ccc(C(C)(NC(C)=O)c2nc(-c3cnc4ccccc4c3)cs2)cc1 (stereo not drawn) | -5%[18.4 µM] | 21%
CC(C)(C)OC(=O)n1cccc1/C=C1\c2ccccc2C(=O)N1c1ccccc1 | -18% | -11%
CN1CCN(c2ccc(CNC(=O)C3(C)Cc4c(-c5ccc6c(c5)OCO6)ccnc4O3)cc2)CC1 (stereo not drawn) | -15% | -14%
CC(C)(C)OC(=O)[C@H](Cc1ccccc1)NC(=O)c1[nH]cnc1C(=O)Nc1ccccc1F | -14% | -12%
CCOC(=O)[C@]12CCCC=C1N(CCC1=CCCCC1)C(=O)[C@H](CC(=O)NCc1cccs1)C2 | 0% | 53%[activator]
COc1ccc(C(C(=O)NC2CCCC2)n2c(C3CCN(C(C)=O)CC3)nc3ccccc32)cc1 (stereo not drawn) | 1% | 31%[activator]
Cn1nc(-c2ccccc2)cc1NC(=O)[C@@H]1O[C@H](CO)[C@H](O)[C@H](O)[C@H]1O | -1% | 4%
Cc1ccccc1-c1csc(C(C)(O)c2cccnc2)n1 (stereo not drawn) | -2%[18.4 µM] | -8%
COc1ccc(-c2csc(C(C)(O)c3cccnc3)n2)cn1 (stereo not drawn) | 5%[18.4 µM] | -15%
COC(=O)C[C@@H]1C[C@H]2c3cc(N(C)C)ccc3O[C@H]2[C@H](CO)O1 | -3% | -17%
COCC(=O)N1C[C@@H](C)[C@@H](OC)CN(C)C(=O)c2ccc(NC(=O)c3cnccn3)cc2OC[C@H]1C | 8% | -1%
Cc1cccc(C)c1NC(=O)C1(C)CSCC(=O)N1Cc1cccc(C(F)(F)F)c1 (stereo not drawn) | 9% | -10%
CN(C)c1ccc(-c2ccnc3c2CC(C)(C(=O)NCCc2ccccc2)O3)cc1 (stereo not drawn) | -5% | -4%
Cc1ccccc1CN1CCN(C(=O)[C@H]2O[C@@H](n3cnc4c(N)ncnc43)[C@H](O)[C@@H]2O)CC1 | 1% | -17%
O=c1[nH]c(=S)n2c(c1-c1ccccc1)OC(CBr)C2 (stereo not drawn) | 9% | -13%
COCCN1C(=O)COc2ccccc2C1C(=O)Nc1c(C)cccc1C (stereo not drawn) | -3% | -16%
CC(C)N1C(=O)c2ccccc2NC(=O)C1C(=O)NCc1cccc(C(F)(F)F)c1 (stereo not drawn) | 9% | -18%
Cc1cccc(NC(=O)c2ncn3c2C(=O)N[C@@H](C)C3)c1 | 7% | -6%
Cn1cc(-c2ccc(C(=O)Nc3cccc(Oc4ccccc4)c3)c3occc23)cn1 | 7% | 16%
CC(C)c1cc(C(=O)OCC(=O)NC2CCS(=O)(=O)C2)c(O)c(C(C)C)c1 (stereo not drawn) | 0% | -19%
COc1ccc(-c2nc3ccc(Br)cn3c2Cc2cccc(Cl)c2)cc1OC | -4% | -15%
Cc1ccc(S(=O)(=O)NC(=O)C2(C)CCN2C(=O)c2ccccc2CCc2ccccc2)cc1 (stereo not drawn) | 2%[18.4 µM] | 2%
CCN(CC)C(=O)C1=C(C)N(Cc2ccc(C(C)(C)C)cc2)C(=O)C(CC(=O)NC(c2ccccc2)c2ccccc2)C1 (stereo not drawn) | -6% | ?
(further entries)
SMILES | RE007 growth inh | 2A StopGo
CCN(CC(=O)Nc1ccc2c(c1)OCCO2)C(=O)COc1ccc(C(C)=O)cc1 | -14% | 0%
CCc1nc2c(OCCn3cccc3)cccn2c1N(C)C(=O)c1ccc(C)cc1 | -4% | -17%
CN(CCc1ccccc1)C(=O)c1ccc(NC(=O)Cc2ccc(NC(=O)C3CCCN(C(=O)C4CCCCC4)C3)cc2)cc1 (stereo not drawn) | 7% | ?
CC(C)(C)NC(=O)C(c1ccc(O)cc1)N(Cc1ccc2c(c1)OCO2)C(=O)CCl (stereo not drawn) | -11% | -3%
CC(C)(C)NC(=O)C1c2ccccc2OCC(=O)N1CCCN1CCOCC1 (stereo not drawn) | -2% | -3%
O=C(COC(=O)c1cnc(Cl)c(Cl)c1)NC1CCCC1 | -11% | -18%
COc1ccc(-c2cc(NC(C)=O)c3ncc(-c4cc(OC)c(OC)c(OC)c4)n3c2)cn1 | -13%[18.4 µM] | ?
O=C(CC[C@H]1O[C@@H](n2ccc(=O)[nH]c2=O)[C@H](O)[C@@H]1O)N[C@H](Cc1ccccc1)C(=O)NCc1cccs1 | 4% | -7%
CCOC(=O)C1(CCc2ccccc2)CCN(C(C)CSC)CC1 (stereo not drawn) | 6% | -17%
COC(=O)C1=C(c2ccc(S(C)(=O)=O)cc2)C[C@@H]2CC[C@H]1N2C(=O)N1CCC(O)CC1 | -3% | 1%

One compound at a time, as listed above:
Profile of `CCOC(=O)C1(CCc2ccccc2)CCN(C(C)CSC)CC1` (stereo not drawn) : RE007 growth inh: 6%; 2A StopGo: -17%
Profile of `CN(CCc1ccccc1)C(=O)c1ccc(NC(=O)Cc2ccc(NC(=O)C3CCCN(C(=O)C4CCCCC4)C3)cc2)cc1` (stereo not drawn) : RE007 growth inh: 7%; 2A StopGo: ?

(listing goes on)
SMILES | RE007 growth inh | 2A StopGo
O=[N+]([O-])c1ccc(C(S(=O)(=O)Cc2ccccc2)S(=O)(=O)Cc2ccccc2)cc1 | -14% | -4%
CCCCNC(=O)C1(C)CCC(=O)N1C1CCN(Cc2ccccc2)CC1 (stereo not drawn) | -12% | -1%
Cc1cccc(C)c1NC(=O)C1(C)CN(S(C)(=O)=O)CC(=O)N1CCc1c[nH]c2ccccc12 (stereo not drawn) | 0% | 0%
NC(=O)c1cccc(Nc2nc(C(N)CCc3ccccc3)cs2)n1 (stereo not drawn) | -10% | -24%
O=C(NC(c1ccccc1)c1ccc2ccccc2n1)C1CCN(Cc2ccc(Oc3ccccc3)cc2)CC1 (stereo not drawn) | -1% | -22%
COc1cc(OC)cc(C(=O)NC(C(=O)NNC(=O)CN(C)S(=O)(=O)c2ccc(C)cc2)C(C)C)c1 (stereo not drawn) | 3% | -7%
COc1ccc2c(CN3CCCC3)cc(=O)oc2c1 | 9% | 15%
Cc1noc(C)c1S(=O)(=O)Nc1ccc2c(c1)C(=O)N([C@H](C)CO)C[C@H](C)[C@H](CN(C)C(=O)NC(C)C)OCCCC[C@@H](C)O2 | -7% | -17%
CS(=O)(=O)N(CC(=O)N1CCCC1)C1CCCCC1 | 8% | -2%
C=C1C(=O)[C@]23C[C@H]1CCC2[C@@]1(C)C(C[C@@H]3O)[C@](C)(C(=O)O)C[C@H](O)[C@@H]1O (stereo partly drawn) | 16% | -11%
CCOC(=O)N(C)c1c(CC)nc2c(OCCC3CCCCC3)cccn12 | -4% | ?
O=C(NCC1=C(c2ccc3ccccc3c2)C[C@@H]2CC[C@H]1N2Cc1ccco1)c1ccc([N+](=O)[O-])cc1 | -5% | ?
CC(C)=CCc1c(O)ccc(C2COc3c(CC=C(C)C)c(O)cc(O)c3C2=O)c1O (stereo not drawn) | -2% | 28%
CN1CCCN(c2cc(-c3ccc4ccccc4c3)nc3ccnn23)CC1 | -13% | 0%
O=C(CSc1ccc2nnc(-c3cccnc3)n2n1)Nc1ccccc1F | 3% | -28%
O=C(Nc1ccc([N+](=O)[O-])cc1)C(c1ccccc1)c1ccccc1 | 0% | ?
Fc1cccc(Cc2c(-c3ccco3)nc3c4ccccc4ccn23)c1 | -29% | 39%[activator]

Only part of the results is shown, so the mix of outcomes need not match the whole.
